# A647 fluor: compound fluoresces in the A647 spectral region | AID 592 | 59,000 tested, under 10 active | max dye-equivalent concentration, M | Compound fluorescence, A647 channel (570/671 nm), Tris buffer; active means above 1 µM dye equivalent; inconclusive means 0.1 to 1 µM; inactive means 0.1 µM or less;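 note: values scaled relative to a standard on each plate; highest value over a series up to 38 µM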
#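 Tris 100 mM pH 8.0; cpd + A647 stds pin-transferred; 15 min RT; CCD imager, ex 570/em 671. Output = A647-equivalent conc. per cpd conc.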
# TSHR ag: TSH receptor (human) agonism; P16473; HEK293-CNG-TSHR cells (CNG channel as cAMP sensor), membrane potential dye, cAMP; Potency, µM (highest dose often 57.1 µM), for the others: at the top dose activation, actives largely listed as activators; 0.48% of 73,000 active; AID 926; active = well fitted activation curve of enough size with the parental cells flat; inconclusive = any curve in the parental cells; inactive = parental cells flat and receptor cells flat or falling; note: potency is the fitted concentration of half-maximal effect; % of control where 0% means no effect; weak receptor curves with flat parental cells got no call and are not listed
# Target sequence (P16473 whole entry, looked up): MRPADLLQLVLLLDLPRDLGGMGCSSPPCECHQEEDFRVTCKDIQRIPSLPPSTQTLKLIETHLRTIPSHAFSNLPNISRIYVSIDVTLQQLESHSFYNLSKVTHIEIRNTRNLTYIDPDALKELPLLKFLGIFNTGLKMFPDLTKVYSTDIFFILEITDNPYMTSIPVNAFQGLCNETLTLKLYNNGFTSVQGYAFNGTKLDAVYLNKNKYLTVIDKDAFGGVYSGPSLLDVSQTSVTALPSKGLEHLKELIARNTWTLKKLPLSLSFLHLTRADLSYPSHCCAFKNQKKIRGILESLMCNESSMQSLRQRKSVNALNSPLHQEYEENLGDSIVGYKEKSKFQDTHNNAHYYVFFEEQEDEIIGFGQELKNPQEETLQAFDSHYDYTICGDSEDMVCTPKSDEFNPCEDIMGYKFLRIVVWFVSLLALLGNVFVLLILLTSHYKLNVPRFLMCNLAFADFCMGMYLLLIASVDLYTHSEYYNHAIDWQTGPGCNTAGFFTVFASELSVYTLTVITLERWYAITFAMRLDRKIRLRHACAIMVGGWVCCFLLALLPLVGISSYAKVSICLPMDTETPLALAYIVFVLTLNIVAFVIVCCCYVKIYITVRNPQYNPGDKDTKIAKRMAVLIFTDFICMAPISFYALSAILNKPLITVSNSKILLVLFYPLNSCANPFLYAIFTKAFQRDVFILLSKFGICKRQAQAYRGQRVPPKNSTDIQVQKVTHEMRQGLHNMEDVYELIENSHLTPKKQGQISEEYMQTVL
#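 HEK 293 cells stably expressing TSHR and a modified CNG channel, with CNG-only parental cells as counterscreen, were preloaded 60 min at room temperature with membrane potential dye containing 100 uM RO 20-1724. Compound exposure was 30 min, and depolarization was read as fluorescence at 590 nm.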
# A488 fluor: compound fluoresces in the A488 spectral region; compound autofluorescence, A488 spectral region, dye equivalency; stronger effect = higher value; max dye equivalency, M; 0.1% of 59,000 active; active = above 10 nM dye equivalent; inconclusive = 1 to 10 nM; inactive = 1 nM or less; about half of its hits are not listed in these tables;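 note: highest value over a series up to 38 µM; compound alone in buffer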
#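 Autofluorescence read at ex 480/em 540 nm after 15 min RT in 100 mM Tris pH 8.0; compound signal normalized to A488 standard series on each plate, reported as dye-equivalent concentration at each test concentration.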
# AID923: qHTS Assay for Allosteric/Competitive Inhibitors of Caspase-1: Spectroscopic Profiling in AFC Spectral Region | compound fluorescence, AFC spectral region (405/520 nm); almost no hit is shown here | Potency, µM (series often up to 57.5 µM), for inactives: at the highest dose fluorescence increase, hits mostly activators | 1.1% of 75,000 active; active = well fitted activation curve with a large enough effect; inconclusive = small, poorly fitted or top-dose-only effect;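 note: potency is the fitted concentration of half-maximal effect; 0% is about no effect; scaled to a free AFC standard on each plate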
#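 Titrations up to 57 uM read every 20 sec for 3 min (405/520 nm) with 50 nM caspase 1 and 5 uM Ac-WEHD-AFC, pH 7.5 HEPES buffer. Fluorescence-vs-time intercept gave baseline, scaled against on-plate AFC standard.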
# Resorufin autofl: compound fluoresces in the resorufin spectral region | max dye-equivalent concentration, M | Compound fluorescence, resorufin region 547/598 nm, buffer; stronger effect = higher value | 0.04% of 59,000 active; active = above 10 nM dye equivalent; inconclusive = 1 to 10 nM; inactive = 1 nM or less; a few of its hits are not listed in these tables; note: highest value over a series up to 38 µM
#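 Intrinsic fluorescence profiled in the resorufin window (ex 547 nm, em 598 nm) after 15 min at room temperature in pH 8.0 Tris buffer (100 mM); responses normalized against a six-point resorufin standard series as dye-equivalent concentration.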
# An asterisk follows results filed as active; i = inactive; ? = inconclusive; / = not tested or not shown; & = joins results of further samples; [ ] = remark or other dose. Some of the compounds tested; the hit share may differ from the screen's.
SMILES,A647 fluor,TSHR ag,A488 fluor,AID923,Resorufin autofl
C[N+]1(C)CCC(=C(c2ccccc2)c2ccccc2)CC1,3.9e-08,-7%[25.6 µM],i,-2.5%[25.7 µM],i
C1COC(NC(C2CC2)C2CC2)=N1,1e-09&5.2e-09&2.6e-09,5%,i,4.2%,i
Cc1ccc(N(CC2=NCCN2)c2cccc(O)c2)cc1,1e-09&2.3e-08&2.9e-09&4.6e-08&3.1e-09,?,i,1.1%,i
CNCCCN1c2ccccc2CCc2ccccc21,1.5e-08&2.9e-08&3.1e-09&1.3e-08,0%[11.4 µM],i,-2.6%,i
CN1CCO[C@H](c2ccccc2)c2ccccc2C1,3.9e-08,/,i,0.8%[25.7 µM],i
NOCC(=O)O,9.4e-09,?,i,-3.1%,i
C[C@H]1[C@H](C)CC[C@@]2(C(=O)O)CC[C@]3(C)C(=CC[C@H]4[C@@]5(C)C[C@@H](O)[C@H](O)[C@@](C)(CO)[C@@H]5CC[C@@]43C)[C@@H]12,1e-09,?,i,/,i
CCCCNc1ccc(C(=O)OCCOCCOCCOCCOCCOCCOCCOCCOCCOC)cc1,6e-09,4%[25.6 µM],i,0.0%[25.7 µM],i
C[C@@H](C(=O)O)c1ccc(C(=O)c2cccs2)cc1,3.8e-09,-4%[25.6 µM],i,-3.6%[25.7 µM],i
CN(C)CCCC1(c2ccc(F)cc2)OCc2cc(C#N)ccc21 (stereo not given),8.3e-09,/,i,/,i
OC[C@@H](O)CN1CCN(c2ccccc2)CC1,3.6e-09,-13%[25.6 µM],i,4.7%[25.7 µM],i
CN=C(NC#N)Nc1ccc(C2=NNC(=O)C[C@@H]2C)cc1,3.1e-09,/,i,-2.0%,i
CC(=O)OCC(=O)[C@@]1(O)CC[C@@H]2[C@H]3CCC4=CC(=O)C=C[C@]4(C)[C@]3(F)[C@@H](O)C[C@@]21C,1.8e-09,-11%[25.6 µM],i,-3.2%[25.7 µM],i
CCCCCC(=O)O[C@]1(C(C)=O)CC[C@H]2[C@@H]3CCC4=CC(=O)CC[C@]4(C)[C@H]3CC[C@@]21C,4.7e-08,/,i,/,i
NC(N)=O,/,7%,/,-1.0%,/
C#C[C@@]1(O)CC[C@@H]2[C@@H]3CCC4=CC(=O)CC[C@@H]4[C@H]3CC[C@]21CC,1.5e-09,6%[25.6 µM],i,-1.5%[25.7 µM],i
CC(=O)CCCCn1c(=O)c2c(ncn2C)n(C)c1=O,1e-09&1e-09&1.8e-08,?,i,-1.6%,i
COc1nccc(-c2c(-c3ccc(F)cc3)ncn2C2CCC(O)CC2)n1 (stereo not given),/,1%,/,-1.4%,/
CC(=O)O[C@]1(C(C)=O)CC[C@@H]2[C@@H]3C=C(Cl)C4=CC(=O)[C@H]5C[C@@H]5[C@]4(C)[C@H]3CC[C@]21C,1e-09&1e-09,3%[25.6 µM],i,0.6%[25.7 µM],i
COc1cc(N)c(Cl)cc1C(=O)N[C@H]1CCN(CCCOc2ccc(F)cc2)C[C@@H]1OC,/,?,/,-4.5%,/

# A draw from above in order of formula weight, descending.
SMILES,A647 fluor,TSHR ag,A488 fluor,AID923,Resorufin autofl
CCCCNc1ccc(C(=O)OCCOCCOCCOCCOCCOCCOCCOCCOCCOC)cc1,6e-09,4%[25.6 µM],i,0.0%[25.7 µM],i
COc1cc(N)c(Cl)cc1C(=O)N[C@H]1CCN(CCCOc2ccc(F)cc2)C[C@@H]1OC,/,?,/,-4.5%,/
CCCCCC(=O)O[C@]1(C(C)=O)CC[C@H]2[C@@H]3CCC4=CC(=O)CC[C@]4(C)[C@H]3CC[C@@]21C,4.7e-08,/,i,/,i
CC(=O)OCC(=O)[C@@]1(O)CC[C@@H]2[C@H]3CCC4=CC(=O)C=C[C@]4(C)[C@]3(F)[C@@H](O)C[C@@]21C,1.8e-09,-11%[25.6 µM],i,-3.2%[25.7 µM],i
CC(=O)O[C@]1(C(C)=O)CC[C@@H]2[C@@H]3C=C(Cl)C4=CC(=O)[C@H]5C[C@@H]5[C@]4(C)[C@H]3CC[C@]21C,1e-09&1e-09,3%[25.6 µM],i,0.6%[25.7 µM],i
C#C[C@@]1(O)CC[C@@H]2[C@@H]3CCC4=CC(=O)CC[C@@H]4[C@H]3CC[C@]21CC,1.5e-09,6%[25.6 µM],i,-1.5%[25.7 µM],i
Cc1ccc(N(CC2=NCCN2)c2cccc(O)c2)cc1,1e-09&2.3e-08&2.9e-09&4.6e-08&3.1e-09,?,i,1.1%,i
C[N+]1(C)CCC(=C(c2ccccc2)c2ccccc2)CC1,3.9e-08,-7%[25.6 µM],i,-2.5%[25.7 µM],i
CNCCCN1c2ccccc2CCc2ccccc21,1.5e-08&2.9e-08&3.1e-09&1.3e-08,0%[11.4 µM],i,-2.6%,i
C[C@@H](C(=O)O)c1ccc(C(=O)c2cccs2)cc1,3.8e-09,-4%[25.6 µM],i,-3.6%[25.7 µM],i
CN1CCO[C@H](c2ccccc2)c2ccccc2C1,3.9e-08,/,i,0.8%[25.7 µM],i
OC[C@@H](O)CN1CCN(c2ccccc2)CC1,3.6e-09,-13%[25.6 µM],i,4.7%[25.7 µM],i
C1COC(NC(C2CC2)C2CC2)=N1,1e-09&5.2e-09&2.6e-09,5%,i,4.2%,i
NOCC(=O)O,9.4e-09,?,i,-3.1%,i

# Following part.
SMILES,A647 fluor,TSHR ag,A488 fluor,AID923,Resorufin autofl
Oc1cc2c(cc1O)[C@H]1c3ccc(O)c(O)c3OC[C@@]1(O)C2,/,?,/,-0.1%&-0.2%,/
Cc1ccc(=O)n(-c2ccccc2)c1,9.2e-09,7%&7%,i,-2.3%,i
CCN(CC)CCOC(=O)c1ccc(N)cc1,5.2e-09&1e-09,?,i,0.8%,i
COc1ccc(C2CNC(=O)C2)cc1OC1CCCC1 (stereo not given),1.3e-09,/,i,-0.6%,i
O=C(O)CCC(=O)c1ccc(-c2ccccc2)cc1,3.3e-08,-29%[25.6 µM],i,0.5%,i
C[C@H](N[C@@H](C)COc1ccccc1)[C@H](O)c1ccc(O)cc1,3.3e-08,-4%[25.6 µM],i,-0.3%[25.7 µM],i
CCCCNc1ccc(C(=O)OCCN(C)C)cc1,6.1e-09&9.2e-09,0%[25.6 µM],i,-1.0%,i
Oc1ccc(/C=C\c2cc(O)cc(O)c2)cc1,2.6e-08&8.9e-09&1e-09,-3%,i,-1.7%,i
CN1CCCN=C1COC(=O)C(O)(c1ccccc1)C1CCCCC1 (stereo not given),3.4e-09,/,i,-3.4%,i
CC1Cc2ccccc2N1NC(=O)c1ccc(Cl)c(S(N)(=O)=O)c1 (stereo not given),4e-08,/,i,0.3%,i
N[C@@H](Cc1c[nH]c2ccc(O)cc12)C(=O)O,3.9e-08,?,i,4.4%,i
N#Cc1ccc(C(c2ccc(C#N)cc2)n2cncn2)cc1,4.9e-09,/,i,1.2%[25.7 µM],i
COc1cc2ncnc(Nc3cccc(Cl)c3)c2cc1OC,1e-08,0%&5%,i,-3.0%,i
CN[C@H]1[C@@H](O)[C@@H](NC)[C@@H]2O[C@@]3(O)C(=O)C[C@@H](C)O[C@H]3O[C@H]2[C@H]1O,4.1e-09,-3%[25.6 µM],i,-0.3%[25.7 µM],i

# Screening results: PubChem BioAssay, National Center for Advancing Translational Sciences (NCATS)
